VDR inh – vitamin D3 receptor (human) inhibition; 0.93% of 400,000 active; Potency, µM, without a hit: max response, negative = inhibition, most hits filed as inhibitors; P11473; VDR-SRC2-3 peptide fluorescence polarization, 2 h; active = well fitted inhibition curve with a large enough effect; inconclusive = small, poorly fitted or top-dose-only effect, or another doubt; inactive = no such curve, though single readings can be large or run the other way; also: series mostly up to about 120 µM
Target sequence (P11473 whole entry, looked up): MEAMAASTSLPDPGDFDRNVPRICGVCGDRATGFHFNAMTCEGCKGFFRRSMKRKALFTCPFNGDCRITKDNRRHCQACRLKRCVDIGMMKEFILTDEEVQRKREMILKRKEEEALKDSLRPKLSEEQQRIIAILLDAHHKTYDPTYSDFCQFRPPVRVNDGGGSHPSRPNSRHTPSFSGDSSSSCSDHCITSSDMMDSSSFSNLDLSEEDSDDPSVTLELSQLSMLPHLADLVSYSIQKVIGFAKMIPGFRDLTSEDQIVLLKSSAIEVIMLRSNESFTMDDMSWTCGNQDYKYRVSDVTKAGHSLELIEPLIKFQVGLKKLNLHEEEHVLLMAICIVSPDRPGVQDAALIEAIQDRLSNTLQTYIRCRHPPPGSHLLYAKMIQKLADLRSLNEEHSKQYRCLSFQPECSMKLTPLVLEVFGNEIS
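Reagent solutions, kept cold and dark, are dispensed first; compounds are then pinned in at 23 nl, plates briefly spun, and incubated 2 h at ambient temperature. Inhibition of VDR–SRC2-3 peptide binding is read by fluorescence polarization.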
Active calls of the source: *; u = inconclusive; & = joins results of further samples. % is scaled to controls: 0 for no effect and ±100 for the full control effect; potency is read from the fitted curve at half-maximal effect. Only part of the results is shown. The share of hits here may be higher or lower than overall.

VDR inh | structure
-15% | Cc1ccc(-c2nnc(Nc3ccccc3)o2)cc1
-17% | O=C(CN1C(=O)c2ccccc2S1(=O)=O)NC1CC2CCC1C2 (centres undefined)
-9% | COc1ccc(S(=O)(=O)Nc2ccc3c(c2)COC3=O)cc1OC
u | CN(C)C(=S)NCc1ccccc1
13% | CC(=O)N1CCc2cc(S(=O)(=O)NCCCN3CCN(Cc4ccccc4)CC3)ccc21
4% | O=C(Nc1ccncc1)Nc1ccc(F)cc1
u | COc1ccc(/C=C/c2ccc(=O)n(Cc3ccccc3)n2)cc1
1% | CCCNC(=O)C(=O)NCC1CCCN1CC (centres undefined)
9% | O=C(Cn1c(-c2ccccc2)noc1=O)Nc1ccc(S(=O)(=O)N2CCOCC2)cc1
-16% | CCOc1ccccc1Nc1nnc(SCC(=O)NC2CC2)s1
11% | O=C(CN1CCOCC1)N1CCN(c2ccc([N+](=O)[O-])cc2)CC1
3% | O=c1cc(-c2ccccc2)nc(/C=C/c2ccccc2)[nH]1

Five structures already listed, arranged by heavy-atom count, ascending:
VDR inh | structure
u | CN(C)C(=S)NCc1ccccc1
4% | O=C(Nc1ccncc1)Nc1ccc(F)cc1
-15% | Cc1ccc(-c2nnc(Nc3ccccc3)o2)cc1
u | COc1ccc(/C=C/c2ccc(=O)n(Cc3ccccc3)n2)cc1
13% | CC(=O)N1CCc2cc(S(=O)(=O)NCCCN3CCN(Cc4ccccc4)CC3)ccc21

Next section.
VDR inh | structure
14% | CC(C)[C@H](NC(=O)C1CCN(S(=O)(=O)c2ccc(F)cc2)CC1)C(=O)NCc1ccncc1
-4% | Cc1ccn2c(=O)cc(COc3ccc(NC(=O)C(C)(C)C)cc3)nc2c1
-14% | Cc1nn2c3ccccc3n(CCN3CCCCC3)c2nc1=O
9% | N#Cc1nc(COc2ccccc2)oc1NCCN1CCOCC1
5% | CCOC(=O)C1CCCN(c2ncnc3c2cnn3-c2ccc(OC)cc2)C1 (centres undefined)
1% | CCOC(=O)c1ccc(NC(=O)c2oc3c(c2C)-c2nn(Cc4ccccc4Cl)cc2CC3)cc1
11% | CN1CCC(OC(=O)c2ccccc2)CC1
6% | Cc1ccc(S(=O)(=O)NCC(=O)OCc2nnc(-c3ccccc3)o2)cc1
-4% | CCOCCCNC(=O)Cn1nc(Cc2ccncc2)c2ccccc2c1=O
16% | O=C(NCc1ccc2c(c1)OCO2)C1CCCN1C(=O)Nc1cccc(Cl)c1 (centres undefined)
-7% | CC1CCN(C(=O)CSc2nc3cccnc3n2C)CC1
-13% | Cc1ccc(-c2nc3ncccn3c2NC2CCCCC2)o1
-12% | CCN(Cc1ccccc1)Cc1c(O)ccc2c(=O)c(-c3ccc(Cl)cc3Cl)coc12
1% | O=S(=O)(c1ccc2nc(-c3ccccc3)[nH]c2c1)N1CCN(c2ccc(Cl)cc2)CC1
-10% | C=C1C(=O)O[C@H]2C1CC[C@@](C)(O)C13C=CC(C)(C21)C1(C3)C(=O)O[C@@H]2C3C(C)=CCC3[C@](C)(O)C[C@H](OC(C)=O)C21 (some centres undefined)
-19% | CCOCCCNC(=O)NC(=O)CN1CCN(S(=O)(=O)c2ccc3c(c2)OCCO3)CC1
3% | CCc1nc(NCc2ccccn2)c2oc3ccccc3c2n1
-12% | CC(C)CN(C(=O)CN1CCC(C)CC1)c1c(N)n(CC(C)C)c(=O)[nH]c1=O
-22% | COc1ccc2nc(Nc3nc(C)c(CCC(C)C)c(=O)[nH]3)nc(C)c2c1
u | CN1\C(=C/C=C/C=C/C=[N+](C)C)C(C)(C)c2ccccc21
-1% | CCNC(=O)N1c2ccccc2Sc2ccccc21
5% | COc1ccc(OC)c(NC(=O)CCN2CCCCCC2)c1
u | CC(C)C1=CC2=CC[C@@H]3[C@](C)(CCC[C@@]3(C)C(=O)O)[C@H]2CC1
1% | COc1ccc(OC)c(NC(=O)CNC(=O)Cn2c(C)cc3ccccc3c2=O)c1
-15% | CCN(C(=O)CN1C(=O)S/C(=C\c2cccc(Cl)c2)C1=O)C1CCS(=O)(=O)C1 (centres undefined)
5% | CCCCn1c(N)c(N(CC)C(=O)c2cccc(C)c2)c(=O)[nH]c1=O
4% | CCOC(=O)C1=C(C)NC(=O)C(C(N)=O)C1c1ccccc1 (centres undefined)
u | S=c1[nH]nc(-c2cc3c(s2)-c2ccccc2CC3)o1
-4% | Cc1cc(N2CCCCC2)nc(NCc2ccccc2)n1
-5% | CC1CCN(CCCNC(=O)c2nn(C)c3c2CS(=O)(=O)c2ccccc2-3)CC1
-12% | O=C(Nc1ccccc1Oc1ccccc1)C1CCCC1
13% | CCc1ccc(OCC(=O)NCC(c2ccc(Cl)cc2)N2CCOCC2)cc1 (centres undefined)
-4% | Cc1ccc(NC(=O)N2CCC(C(N)=O)CC2)cc1
-7% | CCOc1ccccc1NC(=O)Cn1c(=O)n(-c2ccc(F)cc2)c(=O)c2sc3ccccc3c21
0% | O=C1C=C(N2CCOCC2)CCC1
7% | O=C(N/N=C/c1cccnc1)NC12CC3CC(CC(C3)C1)C2
-13% | Cc1ccc(C2=NS(=O)(=O)N(C)C(C(=O)NC(C)c3ccccc3)=C2)cc1 (centres undefined)
-5% | N#Cc1ccsc1NC(=O)CN1CCN(S(=O)(=O)c2cc(Cl)ccc2Cl)CC1
13% | CCOCCCNC(=O)CS(=O)(=O)Cc1nc(-c2cccc(OC)c2)oc1C
-11% | CCCCc1ccc(-c2ccc(C)cc2O)nc1
-12% | NC(=O)C(C1=CCCCC1)c1ccccc1 (centres undefined)
2% | CN(CC(=O)Nc1ccc(F)cc1)C(=O)CSc1ncccn1
-2% | O=[N+]([O-])c1ccc(S(=O)(=O)N/N=C/c2cccs2)cc1
0% | O=C(Nc1ccnn1C1CCN(Cc2cc(Cl)ccc2O)CC1)C1CC1
19% | COc1ccc2c(c1)[nH]c1c(=O)n(CCN3CCCC3)cnc12
-14% | COc1ccc(CN2CCN(C3CCSCC3)CC2CCO)c(C)c1C (centres undefined)
12% | Cc1ccc(S(=O)(=O)NC(=O)Nc2c(C)n(C)n(-c3ccccc3)c2=O)cc1
4% | Cc1ccc2nc(Cl)nc(-c3ccccc3)c2c1
3% | COc1cccc(NC(=O)N2C3CCCC2CC(NC(=O)C(C)(C)C)C3)c1 (centres undefined)
7% | S=C(NCCCc1ccccc1)NCc1ccccc1
-17% | Cc1ccc(N=Cc2c(O)c3ccccc3oc2=O)cc1F
-12% | O=C(CSc1nc2ccc(NC(=O)C3CCCCC3)cc2s1)NCC1CCCO1 (centres undefined)
10% | O=C(/C=C/c1ccc(Cl)c(Cl)c1)NCCCn1ccnc1
11% | C[C@@H](NC(=O)CN1C(=O)c2ccccc2S1(=O)=O)c1ccccc1
-7% | Cc1nc2ccc([N+](=O)[O-])cc2c(=O)n1Cc1ccccc1Br
-20% | CCCN(CC(=O)Nc1ccc(Cl)cc1Cl)C(=O)/C=C/c1ccco1
3% | O=C(CCN1C(=O)c2ccccc2C1=O)Nc1cccc(S(=O)(=O)N2CCCCC2)c1
13% | Cc1oc(-c2ccc(Cl)cc2)nc1CS(=O)CC(=O)NCCc1ccccc1 (centres undefined)
23% | COc1ccc(CNC(=O)COC(=O)c2ccc(Br)cc2)cc1
6% | COC(=O)c1cc2occc2n1CC(=O)Nc1cc(OC)cc(OC)c1

The list goes on:
VDR inh | structure
-9% | CCS(=O)(=O)N1Cc2ccccc2CC1C(=O)Nc1ccc(F)c(F)c1 (centres undefined)
-19% | Cc1nn(CC(=O)N2CC(=O)Nc3ccccc32)c(C)c1[N+](=O)[O-]
12% | Cc1ccc(NC(=O)c2ccc3[nH]c(=O)c(=O)[nH]c3c2)nc1
-10% | COc1cc(OC)c(C2SCCN2S(=O)(=O)c2ccc(F)cc2)cc1OC (centres undefined)
5% | CC(=O)c1cc(C#N)c(SCc2ccc([N+](=O)[O-])cc2)nc1C
-28% | Cc1ccc(C2=Nc3ccccc3N=C(C(Cl)Cl)C2)cc1
-6% | Cc1[nH]c2ccccc2c1C=NNC(=O)c1cc(-c2cccnc2)nc2ccccc12
-20% | COc1ccc(C(=O)NC2CC2)cc1OC1CCN(C(C)CSC)CC1 (centres undefined)
6% | O=C(Nc1ccc(Cl)c(C(F)(F)F)c1)N1CCCC(O)C1 (centres undefined)
-18% | O=C(c1cc([N+](=O)[O-])ccc1N1CCCCC1)N1CCc2ccccc21
10% | CN1c2ccc(Cl)cc2-c2nc(SCC(=O)Nc3cc(F)ccc3F)ncc2S1(=O)=O
8% | COc1ccc(NS(=O)(=O)c2cc(NC(=O)CCc3ccc(OC)c(OC)c3)ccc2N2CCOCC2)cc1
2% | CN(c1ccc(O)cc1)c1nc(-c2cccs2)cs1
-2% | Cc1ccc(N(CC(=O)NC2CCCCC2)C(=O)CNC(=O)c2ccco2)cc1C
8% | Cc1ccc2c(=O)cc(C(=O)Nc3c(C(=O)Nc4cccc(Cl)c4)oc4ccccc34)oc2c1
10% | CCCCC1SC(N)=NC1=O (centres undefined)
-5% | Fc1ccccc1/C=N/Nc1cc(N2CCCCC2)ncn1
-9% | CCC1(c2ccccc2)NC(=O)N(CC(=O)Nc2ccc(N3CCCC3)cc2C)C1=O (centres undefined)
-18% | O=C(N/N=C/c1ccc(O)c(O)c1)NC12CC3CC(CC(C3)C1)C2
-5% | O=C(NC(=O)N1CCN(c2ccccc2F)CC1)c1ccccc1
0% | CC1CCc2[nH]c3ccc(C(=O)N(C)CC(=O)Nc4cccc(F)c4)cc3c2C1 (centres undefined)
-4% | CC1(C(=O)NCCCN2CCOCC2)Oc2cccnc2NC1=O (centres undefined)
50µM* | Cc1ccccc1-c1cncnc1NCc1cccnc1
5% | COc1cccc(NC(=O)[C@H](CC(C)C)NC(=O)[C@@H]2Cc3ccccc3CN2)c1
-7%&-3% | COc1ccccc1O
7% | Cc1cccc(C(=O)NNC2=CC(=O)CC(C)(C)C2)c1O
-22% | COc1cc(OC)c(OC)cc1CN1CCN(Cc2ccco2)CC1
13% | CCc1ccc2oc(=O)cc(CN3CCCCC3)c2c1
-27% | C=CCn1c(SCC(C)=O)nnc1-c1cc(-c2ccccc2)sc1N
79µM* | O=C(CSc1nnc(CN2CCOCC2)n1-c1ccc(Cl)cc1)N1CCc2ccccc21
u | COc1ccc(NS(=O)(=O)c2ccc(N3CCCC3)c(NC(=S)Nc3ccc(SC(F)F)cc3)c2)cc1
-10% | COc1ccc(C(C)=O)cc1COc1ccc([N+](=O)[O-])c(C)c1
-2% | CCN1CCN(c2cc(C)c3cc(NC(=O)c4ccncc4)ccc3n2)CC1
-11% | O=C(O)CCCN1C(=O)/C(=C/c2cn(-c3ccccc3)nc2-c2cccs2)SC1=S
10%&-14% | CCCCCCNS(=O)(=O)c1ccccc1Br
-7% | CCCCC1(Cc2ccc(OC)c([N+](=O)[O-])c2)C(=O)N(c2ccccc2)N(c2ccccc2)C1=O

In a second layout: 4 of the compounds above.
> CCCCc1ccc(-c2ccc(C)cc2O)nc1
  VDR inh: -11%

> CN(c1ccc(O)cc1)c1nc(-c2cccs2)cs1
  VDR inh: 2%

> O=[N+]([O-])c1ccc(S(=O)(=O)N/N=C/c2cccs2)cc1
  VDR inh: -2%

> Cc1nn(CC(=O)N2CC(=O)Nc3ccccc32)c(C)c1[N+](=O)[O-]
  VDR inh: -19%

Remaining list, next part
VDR inh | structure
2% | O=C(Cc1cccs1)N1CCN(S(=O)(=O)c2ccc(Br)cc2)CC1
-17% | O=C(CC(=O)c1ccccc1)Nc1ccc([N+](=O)[O-])cc1
4% | COc1ccccc1Cc1nc2ccccc2nc1SCC(=O)NCc1ccc(C)cc1
1% | COc1nccnc1NS(=O)(=O)c1ccc(NC(=O)c2cccc(C)c2)cc1
6%&-21% | COc1ccccc1NC(=O)Cn1nnc(C(=O)NCc2cccs2)c1N
6% | Cc1ccc(C)c(OCC(=O)Nc2nc3ccc([N+](=O)[O-])cc3s2)c1
-11% | Cc1noc(C)c1C(=O)N1CCc2ccccc21
13% | CCN(CC)C(=O)c1sc(NC(=O)Cc2ccc(OC)cc2)c(C#N)c1C
-6% | O=C(CN1C(=O)NC2(CCCCC2)C1=O)Nc1nc2c(F)cc(F)cc2s1
11% | CC(C)OC(=O)c1c2c(n3ccccc13)C(=O)c1ccccc1C2=O
-1% | O=[N+]([O-])c1ccc(NN=Cc2ccco2)nc1
11% | COc1ccc2ccccc2c1CN1CCN(Cc2ccccc2)CC1
-20% | CC(=O)Nc1ccccc1C(=O)N1CCN(Cc2ccc3c(c2)OCO3)CC1
-11% | COC(=O)/C=c1/s/c(=C(\C#N)C(=O)NCc2ccco2)n(-c2ccccc2)c1=O
-20% | COc1ccc(CCNC(=O)CNS(=O)(=O)c2ccc(N(C)C)c([N+](=O)[O-])c2)cc1OC
-8% | CCOC(=O)c1ccc(N2C(=O)c3n[nH]c(-c4ccco4)c3C2c2ccc(O)cc2)cc1 (centres undefined)
-9% | Cc1ccc(Nc2ccc(C(=O)O)cc2N)cc1
10% | CN1CCN(S(=O)(=O)c2ccc(NC(=O)c3csc4ccccc34)cc2)CC1
-5% | NC(=O)c1c(NC(=O)CSc2nnc(-c3ccco3)n2-c2ccccc2)sc2c1CCC2
-4% | Cc1nn(-c2ccccc2)c2c1C1(C(=O)N(C(C)C)c3ccccc31)C(C#N)=C(N)O2 (centres undefined)
1% | c1ccc(-c2nc(-c3ccccn3)nc(-c3ccccn3)n2)nc1
6% | Cc1ccccc1OCC(=O)Nc1ccc2nc(SCC(=O)N3CCCC3)sc2c1

Two of the compounds above, as a markdown table:
| compound | VDR inh |
| --- | --- |
| NC(=O)c1c(NC(=O)CSc2nnc(-c3ccco3)n2-c2ccccc2)sc2c1CCC2 | -5% |
| Cc1nn(-c2ccccc2)c2c1C1(C(=O)N(C(C)C)c3ccccc31)C(C#N)=C(N)O2 (centres undefined) | -4% |

Assay outcomes (PubChem)
